Screening data: PubChem, Center for Chemical Genomics, University of Michigan
HIV TAR-Tat: TAR RNA-Tat peptide displacers, HIV-1, primary screen, biochemical, FRET, FAM/TAMRA-labeled Tat; HIV-1 TAR RNA, Tat peptide displacement FRET; active compounds read high; z-score (test concentration not listed); 0.6% of 100,000 active; AID 1259389, 2018;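 further: score is relative to mean and SD of negative controls; some compounds called inactive have numbers as strong as hits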
CDC25B-CDK2 inh: primary biochemical HTRF screen for blockers of M-phase inducer phosphatase 2 binding to CDK2/cyclin A. P30305+P24941. z-score (no concentration beside the values). 0.72% of 94,000 active. HTRF CDC25B-CDK2/CyclinA binding, anti-His/anti-Flag; active compounds read high;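 further: score is relative to mean and SD of negative controls; strong numbers were not always called active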
Active calls of the source: *; . = not tested or not shown; & = joins results of further samples.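 How the source made its calls: active means z-score from 3 up in half or more of its runs; inactive means the rest.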 An unsorted share of the library; 0.9% or so of the library scored in one or more.

Compound	HIV TAR-Tat	CDC25B-CDK2 inh
O=C(NCc1ccccc1Cl)C1CC2CCCN2C12C(=O)Nc1ccccc12 (configuration not stated)	1	0.76
CCn1c(-c2ccc(C)cc2)n[nH]c1=S	.	-2
COc1cc(NC(=O)C2=C(C)C(=O)OC23CCN(S(C)(=O)=O)CC3)cc(OC)c1	-0.83	.
Cc1ccn2c(=O)cc(COc3ccc(NS(=O)(=O)c4ccccc4)cc3)nc2c1	-6.2	.
O=C(CSc1ccc(-c2ccccn2)nn1)Nc1ccc(F)cc1	2.9	.
Cc1ccn2c(=O)c(NC(=O)Cc3ccc(F)cc3)c(C)nc2c1	1.1	.
CCCCn1c(N2CCCCC2)nc2c1c(=O)[nH]c(=O)n2C	.	-0.42
COc1cccc(Nc2nc(Nc3ccc(OC)c(Cl)c3)c3cnn(C)c3n2)c1	0.99	.
O=C(Cn1c(=O)c2cccn2c2cccnc21)N1CCN(c2ccccc2F)CC1	-2.4	.
CN1CCc2c(sc(-n3cccc3)c2CNC(=O)Nc2ccccc2Br)C1	-5.4	.

Compound	HIV TAR-Tat	CDC25B-CDK2 inh
COc1ccc(C2CC(c3ccc(NS(C)(=O)=O)cc3)=NN2C(=O)c2ccco2)cc1 (configuration not stated)	.	-2.6
c1ccc(Sc2nc(N3CCCCC3)nc(N3CCCCC3)n2)nc1	.	-1.5
CNC(=O)c1ccccc1S(=O)c1cccc2cccc(CO)c12 (configuration not stated)	.	-0.52
COc1cccc(/C=C/c2nc(C#N)c(NC3CC3)o2)c1	0.3	-0.56
Cc1cccc(-c2nnc(C3CCN(S(C)(=O)=O)CC3)o2)c1	-0.63	-2.4
COc1cccc(OCC(=O)Nc2nnc3n2CCCS3)c1	0.42	.
CCc1nnc2c(N3CCc4ccccc43)nc3ccccc3n12	-0.77	.
CCn1cc(C(=O)O)c(=O)c2cc(S(=O)(=O)N3CCC(C)CC3)ccc21	.	-1.4
CCOC(=O)N1CCC(N=C2NS(=O)(=O)C(c3ccc(C)cc3)=C2C)CC1	0.07	-0.35
O=C(Nc1cccc(Br)c1)Nc1nc2c(s1)CCCCCC2	0.55	.

Compound	HIV TAR-Tat	CDC25B-CDK2 inh
CC(=O)N1c2ccccc2CC1C(=O)N1CCOCC1 (configuration not stated)	2.5	.
CC1CCCC(Nc2c(-c3ccc(Br)cc3)nc3c(C#N)c[nH]n23)C1C (configuration not stated)	1.9	0.44
O=C1CC(C(=O)OCc2ccccc2)N1 (configuration not stated)	.	-3.4
COc1cccc(CN(C)CCc2ccccn2)c1OC	0.91	0.31
CC(=O)Nc1ccc(N2C(=O)C3C4c5ccccc5C(c5ccccc54)C3(C)C2=O)cc1 (configuration not stated)	-0.16	-0.77
CCCCN(C)CCCNC(=O)Nc1sc2nc3n(c(=O)c2c1C)CCC(C)CC3 (configuration not stated)	0.1	-2.3
Cc1ccc(/C(O)=C2\C(=O)C(=O)N(Cc3cccnc3)C2c2ccc(C)cc2)cc1 (configuration not stated)	0.71	-1.1
O=c1c2cccnc2n(Cc2ccccc2F)c(=O)n1Cc1ccc2c(c1)OCO2	-0.28	-1.2
Cc1csc(SCC(=O)NNS(=O)(=O)c2cc(C(F)(F)F)cc(C(F)(F)F)c2)n1	.	-1.4
COc1cc(OC)cc(-c2nc3nc(C)c(CCC(=O)O)c(C)n3n2)c1	1.9	-1.4

Compound	HIV TAR-Tat	CDC25B-CDK2 inh
Cc1cccc(C(=O)N2CCc3cc4ccc(C)cc4nc32)c1	-4	1.5
CSC(=NCc1cccs1)NC(=O)c1c(Cl)cccc1Cl	.	0.2
CCCN(CCC)c1ncnc2c1cnn2C	1.4	.
CCOC(=O)N1CCN(c2c(-c3cc(C)c(C)cc3C)c(=O)c2=O)CC1	-0.53	.
CCOC(=O)c1c(C)[nH]c(C)c1S(=O)(=O)Nc1cc(C)on1	0.12	.
CS(=O)(=O)N1CCc2cc(C(=O)NCC3CCCO3)ccc21 (configuration not stated)	1.3	-1.4
CC(C)C(=O)N1N=C(c2cccc(NS(C)(=O)=O)c2)CC1c1ccco1 (configuration not stated)	.	-0.42
CCN(CC)c1c(S(=O)(=O)c2ccccc2)cnc2ccc(Cl)cc12	0.27	0.67
Cc1ccccc1CS(=O)(=O)c1ccc2c(c1)S(=O)(=O)N=CN2	-0.23	.
Cc1nc(N2CCOCC2)cc(N2CCN(C(=O)c3ccc4c(c3)OCO4)CC2)n1	1.1	2.5

Compound	HIV TAR-Tat	CDC25B-CDK2 inh
CCOC(=O)c1c(NC(=O)c2cc3ccccc3c(=O)o2)sc(C)c1C	-0.29	1.8
O=C(O)c1ccc(CSc2n[nH]c(Cc3ccccc3)n2)o1	-0.55	0.69
Cc1nn2c(=O)cc(COC(=O)C(c3ccccc3)c3ccccc3)nc2s1	0.95	.
Cc1nc(CC(=O)Nc2nnc(C3CCCO3)s2)cs1 (configuration not stated)	1.2	-1.8
O=C(COc1ccc(Br)cc1)N(Cc1ccco1)c1ccccn1	0.64	-0.05
FC(F)(F)Oc1ccc(C2=NCCc3sccc32)cc1	.	-0.69
CCCCN1C(C)=NS(=O)(=O)c2cc(C(=O)N3CCCC3)ccc21	0.34	.
Cc1[nH]c2ccccc2c1C1=CCN(S(=O)(=O)c2ccc(Cl)cc2)CC1	-0.19	-1.6
Cc1ccc(S(=O)(=O)NC(C)(C)CSc2ncccn2)cc1	2	-0.9
O=S(=O)(NCc1ccc2c(c1)OCO2)c1ccc2oc3ccccc3c2c1	.	-1

Compound	HIV TAR-Tat	CDC25B-CDK2 inh
Cc1ccc(Nc2nc(N3CCN(C)CC3)nc(N)c2[N+](=O)[O-])cc1C	0.92	.
O=C(c1ccccc1F)N1c2ncnn2C2(CCCCC2)[C@@H]2CCCC[C@@H]21	0.88	0.37
CCOc1ccc(-n2c(=O)[nH]c3c(C(N)=O)nc(-c4ccco4)nc32)cc1	0.48	.
Cc1nc2c(c(C)c1CCC(=O)NCCC(C)C)c(=O)n(C)c(=O)n2C	0.49	-2.1
OCC(O)C(O)C(O)CO (configuration not stated)	-1.9&2.8	.
CC(C)c1ccc(S(=O)(=O)Nc2cccc(-c3nc(-c4ccccc4)co3)c2)cc1	1.7	.
Cc1ccc(SC(=O)c2ccc(C#Cc3ccccc3)o2)cc1	.	0.03
CC1(C)Cc2ccccc2-c2nnc(-c3cccc(O)c3)n21	.	-0.82
Clc1cc2c(c3ncccc13)OCN(CCC1=CCCCC1)C2	.	-2.9
CCCCOC(C)n1ccc(=O)[nH]c1=O (configuration not stated)	0.52	-1.9

Two entries drawn at random from those above:
Compound	HIV TAR-Tat	CDC25B-CDK2 inh
CC(C)c1ccc(S(=O)(=O)Nc2cccc(-c3nc(-c4ccccc4)co3)c2)cc1	1.7	.
Cc1ccc(Nc2nc(N3CCN(C)CC3)nc(N)c2[N+](=O)[O-])cc1C	0.92	.

Next section.
Compound	HIV TAR-Tat	CDC25B-CDK2 inh
Cc1ccc(/C=N/Nc2ncnc3sc(-c4ccccc4)cc23)o1	.	-1.7
N#Cc1c(-c2ccco2)cc(-c2ccco2)[nH]c1=O	.	0.39
CN(CC(=O)NCCC1=CCCCC1)S(=O)(=O)c1ccc2c(c1)CCC(=O)N2	.	-0.21
CCC(C(=O)O)c1ccccc1 (configuration not stated)	0.46	.
CCOC(=O)CSc1nnc(Cn2c(=O)sc3ccccc32)n1-c1ccccc1	.	-1.6
CC1(C)CC(=O)c2cnn(-c3nc4ccccc4[nH]3)c2C1	0.92	0.24
O=C(N/N=C\c1ccc(CNS(=O)(=O)c2ccc(Cl)cc2)o1)C(=O)Nc1ccc(Oc2ccccc2)cc1	.	-1.8
O=S(=O)(NC1CCCCC1N1CCCCC1)c1ccc(Cl)cc1 (configuration not stated)	0.77	-1.4
C=CCc1cccc2cc(C(=O)Nc3cccc(C(C)=O)c3)c(=O)oc12	.	0.45
N#Cc1ccccc1CN1C(=O)c2ccccc2C1=O	.	-1.1

Compound	HIV TAR-Tat	CDC25B-CDK2 inh
CCOCCCNC(=O)C(CC)n1nc(CC)n2c(cc3oc(C)cc32)c1=O (configuration not stated)	-0.01	1
Cc1sc(-c2nnn(-c3cccc(Cl)c3)c2C)nc1C(=O)O	1.6	-1.6
Cc1ccc(NS(=O)(=O)c2ccc3c(c2)CC(=O)N3)cc1C	2.1	-1.4
CCCc1cc(=O)[nH]c(Nc2cc(Cl)ccc2O)n1	-2.4	-0.27
CNC(=O)CSc1nc2ccccc2[nH]1	0.44	-0.77
CC(C)(C)C(=O)NNC(N)=S	.	-2.2
CCC(C)OC(=O)C(C)Oc1ccc2c(=O)c(Oc3ccc(C)cc3)coc2c1 (configuration not stated)	0.81	-0.22
CC1=C(C(=O)Nc2nc3ccccc3s2)C(c2cccc(Br)c2)C2=C(CCCC2=O)N1 (configuration not stated)	0.26	-1.3
Cc1cc(-c2ccc(=O)[nH]n2)cc(S(=O)(=O)NCc2ccccn2)c1C	0.82	.
O=C(Cn1cc(SCc2ccc(F)cc2)c2ccccc21)N1CCCC1	-0.76	.

Compound	HIV TAR-Tat	CDC25B-CDK2 inh
CCCOC(=O)Nc1sc2c(c1C(=O)OCC)CCCC2	0.95	0.27
CCOC(=O)CSc1nc(SCC(=O)OCC)c2c3c(sc2n1)CCC3	.	-0.94
Cc1nn(-c2ccccc2)c2sc(C(=O)Nc3ccc4c(c3)OCO4)cc12	0.78	.
O=c1ccc(-c2ccc(S(=O)(=O)NCCCc3ccco3)s2)n[nH]1	0.85	.
O=C(Nc1c(F)cc(F)cc1Br)c1cc(-c2cccnc2)on1	-0.03	0.75
COC(=O)c1ccc(C(=O)Nc2nc(-c3cc([N+](=O)[O-])cs3)cs2)cc1	1.7	.
Cn1nc(C(=O)N2CCc3ccccc32)c2c1-c1ccccc1OC2	0.36	-1.2
CN(CC(=O)N1CCN(c2ccccc2)CC1)S(=O)(=O)c1ccc2[nH]c(=O)oc2c1	-1.3	.
COc1cc(C(NC(=O)c2ccccc2)NC(=O)c2ccccc2)ccc1OCc1ccccc1	.	-3.4
CCOC(=O)c1ccc(N2CCOCC2)c(N)c1	.	0.31

Compound	HIV TAR-Tat	CDC25B-CDK2 inh
CCc1nn(CC(=O)N2CCCC2)c(=O)c2cccn12	1.3	-1.4
COc1ccc(-n2c(C)nnc2SCc2nc(-c3ccc(Cl)cc3)no2)cc1	3	-1.2
CN(CCCN1C(=O)c2ccc(-c3ccco3)n2CC1(C)C(=O)NC1CCCC1)C1CCCCC1 (configuration not stated)	-1.2	.
COc1ccc(/C(O)=C2/C(=O)C(=O)N(CCCN(C)C)C23C(=O)N(C)c2ccccc23)cc1C (configuration not stated)	1.1	-0.14
c1ccc(Cc2nnc3sc(-c4ccc5c(c4)OCCO5)nn23)cc1	-0.03	0.32
Clc1cccc(-c2nnc3sc(-c4ccccn4)nn23)c1	1	-1.6
COC(=O)c1sccc1NC(=O)CCC(=O)O	-0.96	-0.34
CS(=O)(=NC(=O)c1ccc(OC(F)(F)F)cc1)c1ccccc1 (configuration not stated)	.	0.1
CC1CCN(CC2CCN(C(=O)NC3CCCCC3)CC2)CC1	1.3	.
Cn1cnc(S(=O)(=O)Nc2cccc(Br)c2)c1	1.7	.

Compound	HIV TAR-Tat	CDC25B-CDK2 inh
CCCCn1c(CN2CCN(C(=O)OCC)CC2)nc2c1c(=O)[nH]c(=O)n2C	1.9	-1.1
CCc1cccc(C)c1Nc1c(-c2ccccc2O)nc2cnccn12	0.87	-2.1
Cc1cc(S(=O)(=O)N2CCN(c3ccccc3)CC2)ccc1-n1cnnn1	-0.32	-0.64
Cc1ccccc1C(=O)Nc1ccc(S(=O)(=O)N2CCOCC2)cc1	.	-1
O=C(Cn1cnc2c(nnn2-c2cccc(Cl)c2)c1=O)Nc1cccc(F)c1	.	-0.49
CCOc1ccc(-n2c(N)c(C(=O)NCC3CCCO3)sc2=S)cc1 (configuration not stated)	0	.
CCCS(=O)(=O)N1CCN(Cc2cc(Br)ccc2O)CC1	-1.1	-0.73
Cn1c(=O)oc2cc(S(=O)(=O)NC3CCCCCCC3)ccc21	.	-0.48
Cc1ccc2c(c1)oc(=O)n2C(=O)c1cccs1	0.77	.
O=C(CC1=NS(=O)(=O)c2ccccc2N1)NC1CCCC1	1.5	.

Compound	HIV TAR-Tat	CDC25B-CDK2 inh
COC(=O)Cn1c(CN2CCN(c3ccc(OC)cc3)CC2)nc2c1c(=O)n(C)c(=O)n2C	.	-1.9
CCCCN(C)S(=O)(=O)c1cc(-c2cc(C)no2)ccc1CC	2.7	.
O=C(COc1ccc(Cl)cc1)N(Cc1ccco1)Cc1cccs1	-0.04	-0.77
C[C@@H]1C[C@H](C)CN([C@H]2CS(=O)(=O)C[C@@H]2S(=O)(=O)c2ccc(F)cc2)C1	0.35	-0.68
Cc1[nH][nH]c(=O)c1C(c1ccccc1OCc1ccccc1)c1c(C)[nH][nH]c1=O	-0.37	-0.82
CC1(C)Cc2c(C#N)c(SCc3nc4ccccc4[nH]3)nc(N3CCOCC3)c2CO1	0.51	-2.9
Cc1ccc2nc3ccc(N4CCCCC4)nn3c(=O)c2c1	0.87	-3.2
C/S(=N/C(=O)Nc1ccc(Cl)cc1)c1sc(Cl)c2c1C(=O)CC(C)(C)C2 (configuration not stated)	.	-1.5
CC1(C)CC(=O)C=C(NNC(=S)Nc2ccccc2)C1	.	-0.1

Single records, as listed above. Values in the order: HIV TAR-Tat | CDC25B-CDK2 inh
Shown for `O=C(COc1ccc(Cl)cc1)N(Cc1ccco1)Cc1cccs1` = -0.04 | -0.77
Shown for `CCCCN(C)S(=O)(=O)c1cc(-c2cc(C)no2)ccc1CC` = 2.7 | .
Shown for `Cc1ccc2nc3ccc(N4CCCCC4)nn3c(=O)c2c1` = 0.87 | -3.2
Shown for `CC1(C)Cc2c(C#N)c(SCc3nc4ccccc4[nH]3)nc(N3CCOCC3)c2CO1` = 0.51 | -2.9
